# Assay outcomes deposited in PubChem by several laboratories.
# Mtb betalactam – beta-lactam sensitization of Mtb H37Rv; inhibition, % at 25 µM; 0.27% of 330,000 active; M. tuberculosis H37Rv growth with meropenem, percent inhibition; hits of this screen are not shown here; AID 434955;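 active = about 74% or more and at least 40 points above the plate without the antibiotic, then above 30% in a dose series; inconclusive = first-round hits that could not be retested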;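 note: growth measured after seven days incubation then overnight dye step; 0% = bacteria only wells and 100% = bacteria with antibiotic; twin plates without the antibiotic show which effects depend on it; some results filed as inactive read as strong as hits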
# Arbovirus anti – antivirals against arbovirus infection; inhibition, % at 10 µM; 0.37% of 200,000 active; arbovirus infection cell-based antiviral screen; AID 1251;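 active = inhibition from about 30%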;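 note: bluetongue infection of BSR cells; cell survival read as ATP light after 72 h; 0% = infected wells without compound and 100% = uninfected wells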
# RecA intein inh – inhibitors of M. tuberculosis RecA intein splicing | cell-free RecA intein splicing, fluorescence | AID 2221 | inhibition, %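 (about 9 µM by stock and volumes)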 | 0.75% of 290,000 active; in the data active = inhibition above about 30%; inconclusive = no clear call, values can overlap the other calls;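 note: 0% = vehicle wells and 100% = reference inhibitor control wells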
# Target sequence (P9WHJ3 whole entry, looked up): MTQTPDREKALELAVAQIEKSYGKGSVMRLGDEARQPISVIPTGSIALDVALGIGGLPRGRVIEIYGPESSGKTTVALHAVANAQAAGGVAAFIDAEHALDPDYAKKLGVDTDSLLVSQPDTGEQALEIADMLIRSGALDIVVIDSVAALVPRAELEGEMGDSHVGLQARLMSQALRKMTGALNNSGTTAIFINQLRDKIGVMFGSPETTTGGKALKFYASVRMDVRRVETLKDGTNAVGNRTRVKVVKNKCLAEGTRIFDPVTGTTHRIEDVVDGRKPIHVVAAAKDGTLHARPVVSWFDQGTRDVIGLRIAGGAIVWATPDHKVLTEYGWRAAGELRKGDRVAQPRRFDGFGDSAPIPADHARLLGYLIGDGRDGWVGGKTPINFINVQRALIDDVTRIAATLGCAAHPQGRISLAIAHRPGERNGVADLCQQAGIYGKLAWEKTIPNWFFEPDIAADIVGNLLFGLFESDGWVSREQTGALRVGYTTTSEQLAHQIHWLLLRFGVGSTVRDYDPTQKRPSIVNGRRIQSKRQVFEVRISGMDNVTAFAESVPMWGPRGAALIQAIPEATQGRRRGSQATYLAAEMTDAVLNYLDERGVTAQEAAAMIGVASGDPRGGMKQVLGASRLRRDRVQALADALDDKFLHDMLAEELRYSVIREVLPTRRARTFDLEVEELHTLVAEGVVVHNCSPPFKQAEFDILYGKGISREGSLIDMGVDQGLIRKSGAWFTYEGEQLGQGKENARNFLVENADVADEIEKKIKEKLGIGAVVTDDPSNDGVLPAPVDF
# Mtb H37Rv – M. tuberculosis H37Rv growth inhibitors, H37Rv strain (AID 1626); inhibition, % at 10 µM, or IC50 in µM where a hit was titrated; M. tuberculosis H37Rv growth inhibition; higher % means a stronger effect; 0.95% of 220,000 active;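 active = confirmed in a dose series; inconclusive = inhibition above 80% but not taken into the dose series; inactive = below 80% or under 30% at every dose of the series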;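 note: bacteria incubated seven days before Alamar blue readout; 0% = bacteria only wells and 100% = bacteria with antibiotic wells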
# YopH inh – inhibitors of Yersinia enterocolitica YopH tyrosine phosphatase. AID 898. inhibition, %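 (about 10 µM by stock and volumes)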. 0.16% of 140,000 active. fluorescence Ex485/Em525;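 active = inhibition of 50% or more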;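 note: controls were vehicle for no effect and minimum signal wells for full effect; inactives centre near -20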
# Arbovirus anti repeat – second read-out of Arbovirus anti, no call of its own (marks repeat the call); inhibition, %; measured here: 10K subset replicate screen; many hits read low in the repeat;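 first of two repeat runs on a subset; 0% = infected and 100% = uninfected wells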
# Starred values were filed as active, the others as inactive; ? = inconclusive; · = no result given. The list is partial, so the mix of outcomes need not match the whole.
# The first five entries as a preview:
SMILES,Mtb betalactam,Arbovirus anti,RecA intein inh,Mtb H37Rv,YopH inh,others
Cc1ccc(OCC(=O)Nc2ccon2)c([N+](=O)[O-])c1,-15,·,-1.4,·,·,
Cc1cc(C)n(-c2nnc(C)n2/N=C/c2ccccc2OCc2ccccc2Cl)n1,9,10,0.7,17%,-11,Arbovirus anti repeat=0
O=C(OCC(=O)N1CCN(C(=O)c2ccco2)CC1)c1ccccc1OCc1ccccc1,-13,8,-2.1,5%,-48,
O=C(Nc1ccncc1)C1CCCN(S(=O)(=O)c2cccc3cccnc23)C1 (stereo not drawn),-2,-9,-1.3,2%,-7,Arbovirus anti repeat=-8
COc1cccc(CNC(=O)CCCN2C(=O)C(c3ccccc3)Oc3cccnc32)c1OC (stereo not drawn),-6,·,1.0,·,·,

# The whole of this part, from the start:
SMILES,Mtb betalactam,Arbovirus anti,RecA intein inh,Mtb H37Rv,YopH inh,others
Cc1ccc(OCC(=O)Nc2ccon2)c([N+](=O)[O-])c1,-15,·,-1.4,·,·,
Cc1cc(C)n(-c2nnc(C)n2/N=C/c2ccccc2OCc2ccccc2Cl)n1,9,10,0.7,17%,-11,Arbovirus anti repeat=0
O=C(OCC(=O)N1CCN(C(=O)c2ccco2)CC1)c1ccccc1OCc1ccccc1,-13,8,-2.1,5%,-48,
O=C(Nc1ccncc1)C1CCCN(S(=O)(=O)c2cccc3cccnc23)C1 (stereo not drawn),-2,-9,-1.3,2%,-7,Arbovirus anti repeat=-8
COc1cccc(CNC(=O)CCCN2C(=O)C(c3ccccc3)Oc3cccnc32)c1OC (stereo not drawn),-6,·,1.0,·,·,
COc1cc(C(C)=O)ccc1OCC(O)Cn1nc(C)c(Br)c1C (stereo not drawn),12,·,3.2,·,·,
O=C(CN1C(=O)NC2(CCCc3ccccc32)C1=O)Nc1cccc(S(=O)(=O)N2CCCCC2)c1 (stereo not drawn),6,3,7.3,5%,-22,
CCCCN1Cc2c(nc3cc(-c4ccccc4)[nH]n3c2=O)C1=O,-8,·,-18,-13%,·,
O=C(N/N=C/c1c[nH]c2ccccc12)c1ccc2c(c1)OCCO2,4,·,-0.5,6%,·,
Cc1ccc(NC(=O)COc2ccccc2)cc1S(=O)(=O)N1CCCCCC1,-8,·,2.5,·,·,
CN(NC(=O)Nc1ccc(Cl)cc1)c1c(Cl)c(Cl)nn1C,-4,8,-1.6,-1%,·,
C=CCSc1nc2c(c(=N)n1CC=C)C1CCCC1S2 (stereo not drawn),1,-2,8.6,8%,-33,
Cc1cc(C)c(C(N)=O)c(Cl)n1,0,3,-2.1,-1%,·,
O=C(O)CN1C(=O)C2C3C=CC(C2C1=O)C1C(=O)N(CC(=O)O)C(=O)C31 (stereo not drawn),0,·,1.8,·,·,
O=C1COCCOCCOCC(=O)NCCN1,-13,0,-1.4,-9%,·,
COC(=O)[C@H](CCSC)NC(=O)Nc1ccc(OC)c(Cl)c1,-17,3,-0.1,-8%,-16,
COc1ccc(-c2cc3ccccc3oc2=O)cc1NC(=O)c1ccc([N+](=O)[O-])o1,99,-6,8.9,7%,-19,
S=C(NCCc1cnc[nH]1)NC1CCCC1,1,0,2.8,-2%,·,
COc1ccccc1N1CCN(S(=O)(=O)CCNC(=O)c2cc(=O)c3ccccc3o2)CC1,2,·,-2.5,·,·,
Cc1cccc(OCC(=O)O/N=C(\N)c2ccncc2)c1,-6,·,0.4,·,·,

# Reprinted from the listing for reference:
SMILES,Mtb betalactam,Arbovirus anti,RecA intein inh,Mtb H37Rv,YopH inh,others
Cc1ccc(OCC(=O)Nc2ccon2)c([N+](=O)[O-])c1,-15,·,-1.4,·,·,
Cc1cc(C)n(-c2nnc(C)n2/N=C/c2ccccc2OCc2ccccc2Cl)n1,9,10,0.7,17%,-11,Arbovirus anti repeat=0

# (continued)
SMILES,Mtb betalactam,Arbovirus anti,RecA intein inh,Mtb H37Rv,YopH inh,others
COc1ccc(-c2c(C)c3ccc(OCC(C)=O)cc3oc2=O)cc1,9,-3,1.1,7%,·,
COc1ccc(-c2nn(-c3ccccc3F)cc2CNCCn2nc(C)cc2C)cc1,63,13,3.8,59%,·,
Cc1cc(NC(=O)CCC(=O)N(c2cccnc2)C(C(=O)NC2CCCC2)c2ccccc2F)no1 (stereo not drawn),-7,1,-0.3,8%,-3,
Cc1cccc(NC(=O)c2cc(C)nc3ccccc23)c1,0,·,2.8,·,·,
CCCn1ncc(CN2CCCC(C(=O)c3cccc(OC)c3)C2)c1C (stereo not drawn),3,-5,-2.0,-2%,·,
COc1ccc2c(c1)c(/C=C/c1cc[n+](C)cc1)cn2C,5,·,-0.2,·,·,
CCC(=O)N1Cc2ccccc2-c2ccccc2C1=O,-6,-10,1.4,-9%,52*,
CN(Cc1ccccc1)S(=O)(=O)c1ccc(OCC(=O)N2CCC(C(N)=O)CC2)cc1,-6,·,-1.0,-3%,·,
COc1ccccc1NC(=S)NCc1ccc(F)cc1,0,·,-1.4,·,·,
COc1ccc([N+](=O)[O-])cc1NC(=O)C(C)OC(=O)C1c2ccccc2Oc2ccccc21 (stereo not drawn),0,-6,0.3,4%,-41,
C=CCn1c2ccccc2c2nnc(SCC(=O)Nc3cc(C)on3)nc21,16,8,-2.1,1%,-23,
Cc1cccc(N2CCN(C(=O)c3ccc4nc(-c5ccco5)c(-c5ccco5)nc4c3)CC2C)c1 (stereo not drawn),9,-19,-18,4%,1,
COc1ccc(S(=O)(=O)N2CCOC23CCN(C(=O)c2ccc(Cl)cc2Cl)CC3)cc1,0,·,3.7,·,·,
N#Cc1ccc(Oc2nc(Nc3ccc(F)cc3)nc(N3CCCC3)n2)cc1,-2,-3,3.1,8%,-3,
CC(=O)Nc1cccc(OCC(=O)NS(=O)(=O)c2ccc(C)cc2)c1,-6,7,-1.9,-5%,9,
Cc1cc(=O)n2nc(N3CCC(C(=O)NCc4ccco4)CC3)sc2n1,-7,·,0.7,·,·,
CCOC(=O)N/N=C\c1ccc([N+](=O)[O-])s1,60,1,1.3,-6%,·,
Cc1csc(N(C)C(=O)CSc2nnc(COc3cccc4ccccc34)o2)n1,7,7,-1.3,-7%,-19,
CC(=O)n1c(-c2ccccc2)c(CO)c2ccccc21,1,·,-3.9,·,·,
CC/C(=N\Nc1ccc([N+](=O)[O-])cc1)c1ccccc1,94,-13,-3.6,?,·,
CCN(CC)CCNC(=O)c1[nH]c2ccc(OCc3ccccc3)cc2c1C,-9,-27,-0.4,10%,·,
CCC(C(=O)NC(C)CCc1ccccc1)n1nc(C)n2c(cc3occc32)c1=O (stereo not drawn),-4,-10,-3.7,4%,-17,
O/C(=C\c1nc2ccccc2nc1/C=C(\O)c1ccccc1)c1ccccc1,55,-7,-4.6,>100µM*,·,
O=C(c1ccccc1NS(=O)(=O)c1ccc(F)cc1)N1CCCCC1,3,·,-0.2,·,·,
O=C(CN1C(=O)NC2(CCOc3ccccc32)C1=O)NCC(F)(F)F (stereo not drawn),0,·,0.5,·,·,
N#CCC(=O)N/N=C/c1ccc(Sc2nc3ccccc3s2)o1,-3,-14,6.7,-2%,14,
CC(=O)Nc1cc[n+](C(C)C(=O)c2ccccc2)cc1 (stereo not drawn),0,·,0.5,·,·,
CCc1cccc(NC(=O)COC(=O)C2CCN(c3ccc(C(F)(F)F)cn3)CC2)c1,15,·,1.2,·,·,
O=C(CN(Cc1ccco1)S(=O)(=O)c1ccccc1)N/N=C/c1ccccc1C(=O)O,-9,1,0.4,10%,·,
CCC1CCCCN1CCCNC(=O)c1ccc(CS(=O)(=O)c2ccccc2C)o1 (stereo not drawn),3,·,1.5,·,·,
O=P1(Oc2ccccc2)C[C@@H](O)[C@@H](O)[C@H](COCc2ccccc2)O1 (stereo partly drawn),-8,·,-2.9,7%,·,
O=C(CC1Sc2ccccc2NC1=O)Nc1cccnc1 (stereo not drawn),-8,-12,·,2%,-12,
COc1ccc(CN2CCCCC2C(=O)Nc2ccc(OC)c(OC)c2)cc1OC (stereo not drawn),0,6,-4.5,-10%,-42,Arbovirus anti repeat=3
FC(F)(F)Oc1ccc(-c2cn3cccnc3n2)cc1,-1,·,3.5,-7%,·,
COc1ccc(C(=O)NCCC2=CCCCC2)cc1OC,14,7,2.1,-2%,-26,
COc1ccc(-c2noc(C3CCCN(C(=O)c4cccs4)C3)n2)cc1 (stereo not drawn),43,-1,0.9,2%,-6,
CCOC(=O)c1ccc(N2C(=O)CC(Sc3ncccn3)C2=O)cc1 (stereo not drawn),-3,·,-0.3,·,·,
CCOC(=O)CSc1nc2c(c(=O)[nH]c(=O)n2C)n1CCCc1ccccc1,?,8,-0.5,0%,-30,
CCNC(=S)N1CCC(C(N)=O)CC1,-5,·,-0.5,4%,·,
COc1ccc(NC(=O)[C@H](C)NC(N)=O)cc1S(=O)(=O)Nc1cc(C)ccc1Br,-1,-3,-0.3,1%,·,
CCOC(=O)C1=C(C)OC(N)=C(C#N)C12C(=O)N(C)c1ccccc12 (stereo not drawn),2,2,1.6,-9%,-9,
COc1cc(C(=O)OC(C)CN2CCCC2)cc(OC)c1OC (stereo not drawn),-6,-1,-1.2,-13%,-16,
O=S(=O)(c1ccc(NCc2ccccc2)cc1)N1CCOCC1,-18,·,2.1,·,·,
O=C(O)COc1ccc(-c2nccc(-c3ccccn3)n2)cc1,1,-2,-0.3,2%,·,
Cc1ccc(S(=O)(=O)/N=C(/Nc2ccc3[nH]c(=O)[nH]c3c2)c2ccc(F)cc2)cc1,6,-4,-0.2,-7%,·,
Cc1ccc(S(=O)(=O)CCC(=O)NCCc2ccc(Cl)cc2)cc1,2,·,1.5,·,·,
O=c1cc(N2CCCCC2)c(-c2ccccc2)nn1Cc1c(Cl)cccc1Cl,10,-41,0.7,22%,-55,
CCOc1cc(O)c(-c2[nH]ncc2-c2nc(C)cs2)cc1CC,1,·,1.3,-4%,·,
N=C1C(c2nc3ccccc3s2)=C(O)CN1Cc1ccccc1,7,-32,-0.6,-5%,-12,
O=[N+]([O-])c1ccc2c(OCc3nnc(-c4ccccc4Br)o3)ncnc2c1,99,·,-6.4,·,·,
O=C(C1CCCO1)N1CCN(C(=S)Nc2ccccc2C(F)(F)F)CC1 (stereo not drawn),-11,-7,-2.3,·,-29,
O=C(NC1CCCCC1)N1CCN(c2ccccc2Cl)CC1,2,·,4.9,·,·,
CC(NS(=O)(=O)c1ccc(OCC(=O)N2CCOCC2)cc1)c1ccccc1 (stereo not drawn),10,3,0.7,-2%,-14,
O=C(c1ccc(Cn2c(=S)[nH]c3cc4c(cc3c2=O)OCO4)cc1)N1CCN(c2ncccn2)CC1,34,-3,·,-7%,·,
Cc1ccc(S(=O)(=O)N2CCC(C(=O)OC3CCOC3=O)CC2)cc1C (stereo not drawn),-8,·,3.6,·,·,
Cc1ccc2ncnc(-c3ccccc3)c2c1,-2,·,-2.8,·,·,
CC(C)(C)CN1CCNC(=O)C1CC(=O)NC1Cc2ccccc2C1 (stereo not drawn),-1,10,4.6,8%,·,
O=C(CSc1n[nH]c(=O)n1C1CC1)Nc1ccc(Cl)c(Cl)c1,-15,·,1.7,-3%,·,
COC(=O)c1ccc(CSc2nc3ccc(Cl)cc3[nH]2)o1,1,20,3.7,-2%,-22,
Cc1ccc2ccccc2c1Cn1c(-n2ccnc2)nc2c1c(=O)n(C)c(=O)n2C,-2,7,1.6,-9%,11,
# New compounds follow
SMILES,Mtb betalactam,Arbovirus anti,RecA intein inh,Mtb H37Rv,YopH inh,others
CCOC(=O)c1c(NC(=O)c2ccco2)sc2c1CCCC2,3,-2,2.9,-10%,-9,Arbovirus anti repeat=-3
CCN(c1ccccc1)S(=O)(=O)c1ccc(Oc2ccc(-n3ccnc3)cc2)nc1,46,6,7.9,3%,-47,
CN1CCN(C(=O)C23CC4CC(C2)CC(c2ccccc2)(C4)C3)CC1,-7,-17,-1.3,-4%,·,
O=C(CSc1nc(-c2ccc(F)cc2)cc(C(F)(F)F)n1)NCc1ccco1,-9,8,0.6,0%,8,
CC(=O)Nc1ccc(S(=O)(=O)N(Cc2cc3ccc(C)cc3[nH]c2=O)CC2CCCO2)cc1 (stereo not drawn),-3,·,0.4,·,·,
CSCCC(NC(=O)CCC(=O)OCC(=O)[C@@]1(O)CCC2[C@@H]3CCC4=CC(=O)C=C[C@]4(C)C3[C@@H](O)C[C@@]21C)C(=O)O (stereo partly drawn),-4,·,1.1,·,·,
O=C(CSC1=NS(=O)(=O)c2cc(Cl)ccc2N1)Nc1cccc(F)c1,-7,·,-0.4,·,·,
CC1=C(C(=O)Nc2ccccc2)C(c2ccc(C)o2)n2ncnc2N1 (stereo not drawn),-1,2,-2.1,-16%,-18,
COc1ccc(N(C)S(=O)(=O)c2ccc3c(c2)CCC(=O)N3)cc1,-8,13,3.6,0%,-25,
Cc1ccc(NC(=O)Nc2ccccc2C(=O)NCc2ccccc2)cc1,-3,-4,0.5,1%,-30,
COc1ccccc1CNc1nc2nc(C)cc(=O)n2[nH]1,-3,3,-0.2,-2%,-45,
